RE007 growth inh: qHTS Assay for Inhibitors of the HIV-1 protein Vpr; S. pombe RE007 Vpr strain, BacTiter-Glo ATP luminescence, 24 h; control for the full effect not named in the record; Potency, µM (highest dose often 92.2 µM), inactives show at the highest dose activity change, negative = less growth; actives 0.21% (n = 360,000); AID 651644, 2012; active = well fitted falling curve with a large enough effect; inconclusive = small, poorly fitted or top-dose-only effect; inactive = no such curve, though single readings can be large or run the other way;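 further: on the % scale 0 is the no-effect control and ±100 the full control effect; nearly all actives have a fitted effect of over 50% in size; the assay follows cell death caused by Vpr and the record does not say whether a fall means rescue or toxicity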
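Fission yeast strain RE007, carrying one chromosomally integrated HIV-1 vpr copy, was seeded at OD 0.01 in PMG+AL medium with 23 nL pinned compound. After 24 h at 30 °C and 99% humidity, viability was read by BacTiter-Glo luminescence.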
LASV entry inh: qHTS for Inhibitors of binding or entry into cells for Lassa Virus; Lassa virus pseudotype entry inhibition, cell reporter; control for the full effect not named in the record; Potency, µM (series often up to 37.9 µM), for the others: at the top dose activity change, negative = inhibition, hits mostly inhibitors; actives 1.2% (n = 300,000); AID 540256, 2011; active means well fitted inhibition curve with a large enough effect; inconclusive means small, poorly fitted or top-dose-only effect, or effect the other way; inactive means flat fitted curve, though single readings scatter; tested in HEK293 cells; further: on the % scale 0 is the no-effect control and ±100 the full control effect; nearly all actives have a fitted effect of over 50% in size; luciferase read-out
2A StopGo: High Throughput Screening for Foot and Mouth Disease Virus Antivirals. Potency, µM (series often up to 57.9 µM), without a hit: at the highest dose signal change, negative = less light. human cells with a luciferase reporter of 2A StopGo recoding; control for the full effect not named in the record. actives 1.2% (n = 410,000). AID 1159524, 2015; active = well fitted falling curve with a large enough effect; inconclusive = small, poorly fitted or top-dose-only effect; inactive = no such curve, though single readings can be large or run the other way; tested in HEK293T cells; further: on the % scale 0 is the no-effect control and ±100 the full control effect; nearly all actives have a fitted effect of over 45% in size; luciferase light after 4 h
Cruzain noTriton: qHTS Assay for Promiscuous and Specific Inhibitors of Cruzain (without detergent); Cruzipain (Trypanosoma cruzi), P25779; purified cruzain, Z-FR-AMC fluorescence, no detergent; Potency, µM, without a hit: max response, negative = inhibition, hits mostly inhibitors; actives 2.3% (n = 200,000); AID 1476, 2009;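 further: plate controls were enzyme without inhibitor for no effect and buffer without enzyme for full effect; nearly all actives have a fitted effect of over 40% in size; top concentration of the series not given in the record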
Target sequence (P25779 123-467 limits assumed): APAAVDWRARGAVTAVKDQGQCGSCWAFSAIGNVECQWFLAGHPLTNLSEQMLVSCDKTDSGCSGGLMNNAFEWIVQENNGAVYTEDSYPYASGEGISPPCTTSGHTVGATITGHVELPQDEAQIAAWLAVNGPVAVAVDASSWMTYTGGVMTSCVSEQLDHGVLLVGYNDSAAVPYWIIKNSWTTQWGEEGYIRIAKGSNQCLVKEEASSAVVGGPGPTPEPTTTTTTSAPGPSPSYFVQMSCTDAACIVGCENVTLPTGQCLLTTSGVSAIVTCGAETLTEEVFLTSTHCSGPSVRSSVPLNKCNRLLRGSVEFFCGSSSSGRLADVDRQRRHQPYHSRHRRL
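Detergent-free condition (0.00005% Triton X-100) in acetate buffer pH 5.5 with DTT. 1.5 nM enzyme and compound were pre-mixed 15 min, then 2 uM Z-FR-AMC substrate added; reaction progress from fluorescence change between first and third reads (60 s).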
SARS PLP yeast: qHTS of Yeast-based Assay for SARS-CoV PLP | S. cerevisiae expressing SARS-CoV PLpro, growth rescue; control for the full effect not named in the record | actives 0.19% (n = 330,000) | AID 485353, 2010 | Potency, µM (top dose mostly 32.9 µM), for inactives: at the top dose activity, positive = growth rescue; active means well fitted rising curve with a large enough effect; inconclusive means small, poorly fitted or top-dose-only effect; inactive means no such curve, though single readings can be large or run the other way; further: 0% is about no effect; nearly all actives have a fitted effect of over 55% in size; growth read by luminescence after 48 h
NS1 function inh: qHTS Assay for Inhibitors of Influenza NS1 Protein Function. S. cerevisiae slowed by influenza A NS1, growth recovery by OD600. actives 0.4% (n = 270,000). Potency, µM (doses to about 46.1 µM), inactives show at the highest dose activity, positive = more growth; active means well fitted rising curve with a large enough effect; inconclusive means small, poorly fitted or top-dose-only effect; inactive means no such curve, though single readings can be large or run the other way; further: nearly all actives have a fitted effect of over 50% in size
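Read-out: OD600 growth recovery of NS1-expressing budding yeast. Cells grown overnight at 30C in -URA glucose medium, washed, resuspended and diluted 1:100 in 2% galactose assay medium, pH 6.0. Same strain lacking NS1 served as positive control.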
MARV entry inh: qHTS for inhibitors of binding or entry into cells for Marburg Virus | Potency, µM (highest dose often 37.8 µM), for the others: at the highest dose activity change, negative = inhibition, most hits filed as inhibitors | actives 1.8% (n = 300,000) | Marburg virus pseudotyped entry inhibition, cell reporter; control for the full effect not named in the record; about a third of the inactives were read at about 46 µM; active = well fitted inhibition curve with a large enough effect; inconclusive = small, poorly fitted or top-dose-only effect, or effect the other way; inactive = flat fitted curve, though single readings scatter; tested in HEK293 cells; about a fifth of its hits are not listed in these tables; further: on the % scale 0 is the no-effect control and ±100 the full control effect; luciferase read-out
Cruzain inh Det: qHTS Assay for Promiscuous and Specific Inhibitors of Cruzain (with detergent); Cruzipain (Trypanosoma cruzi), P25779; purified cruzain, Z-FR-AMC fluorescence, 0.01% Triton; Potency, µM, for inactives: max response, negative = inhibition, hits mostly inhibitors; actives 0.43% (n = 200,000); AID 1478, 2009;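 further: plate controls were neutral wells for no effect and buffer without enzyme for full effect; nearly all actives have a fitted effect of over 40% in size; top concentration of the series not given in the record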
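15 min RT preincubation of 1.5 nM cruzain with compound, then 2 uM Z-FR-AMC added; kinetic AMC fluorescence, 60 s delta. Triton X-100 0.01%, pH 5.5.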
Starred values were filed as active, the others as inactive; ? = inconclusive; . = not tested or not shown; & = joins results of further samples; [ ] = dose if it differs, or a comment. Unless noted, the call rests on the fitted dose curve; in most records, active means well fitted curve in the direction sought with a large enough effect; inconclusive means small, poorly fitted or top-dose-only effect, or another doubt; inactive means no such curve, though single readings can be large; an effect the other way counts as inactive or inconclusive. Potency means the concentration at half of the fitted maximal effect.

SMILES	RE007 growth inh	LASV entry inh	2A StopGo	Cruzain noTriton	SARS PLP yeast	NS1 function inh	MARV entry inh	Cruzain inh Det
OC[C@@H]1[C@@H](c2ccc(Cl)cc2)C(c2ccccc2)=NN1c1ccccc1	-7%	.	-15%	-18%	-68%	.	.	0.3%
CCOc1c2ccc(C(=O)NCc3ccc(OC)cc3)cc2nn1CCOC	-15%	.	-7%	5%	2%	5%	.	2.3%
COc1ccc2cc(C(=O)C3CCCN(C(=O)c4snnc4C)C3)ccc2c1 (stereo unspecified)	-11%	.	?	.	-2%	0%	.	.
CCOC(=O)CN1C(=O)S/C(=C/c2ccc3c(c2)n(C)c(=O)n3C)C1=O	3%	-3%	29%	6%	3%	-6%	3%	-2.6%
O=C(CCS(=O)(=O)c1ccc(Br)cc1)N1CCN(c2ccccc2Cl)CC1	-2%	-20%	?	2%	-15%	-14%	?	1.2%
C=C(C)C(=O)OCCCCCCOc1ccc(C(=O)O)cc1	1%	-1%	-16%	-13%	-10%	-14%	17%	-0.4%
Cc1nn2c(nc(N3CCCCC3)c3ccccc32)c1C=O	-7%	11%	?	24%	-1%	6%	?	-11%
CCC1CCCCN1c1cc(C)nc2cc(-c3cccc(C)c3)nn12 (stereo unspecified)	?	?	-24%	6%	-29%	-48%	?	-12%
Cc1cccc(C)c1-n1ncc(C(=O)NCCN2CCN(C)CC2)c1C1CCN(C(=O)OC(C)(C)C)CC1	.	-27%[46.1 µM]	-17%	5%	.	.	.	6.5%
O=C(NCC1CCCO1)c1cccc(Oc2ccc([N+](=O)[O-])cc2)c1 (stereo unspecified)	13%	-25%	?	.	?	-52%	-15%	.
CCOC(=O)c1c(N/N=C/c2cccnc2)n[nH]c1C	12%	.	59%[activator]	.	0%	-2%	.	.
CCCCc1ccc(NC(=O)NCc2cccnc2)cc1	0%	.	3%	.	0%	-2%	.	.
Cc1ccc(S(=O)(=O)Nc2ccccc2C(O)c2ccccc2)cc1 (stereo unspecified)	2%	?	-11%	.	-2%	-9%	?	.
COCCCn1c(C)nnc1SCc1ccc(C(C)(C)C)cc1	3%	-2%	-7%	.	1%	2%	6%[46.1 µM]	.
CNc1oc(/C=C/c2ccccc2)nc1C#N	2%	?	46%[activator]	?	-2%	-7%	?	25µM*
O=S(=O)(/N=C(\[O-])C[n+]1ccccc1)c1ccc(Cl)cc1	-2%	4%	-15%	.	-2%	-4%	2%	.
CN(C[C@H](Cc1ccccc1)N(C[C@@H](Cc1cccc2ccccc12)N(CCc1ccccc1)N=O)N=O)N=O	-15%	.	82%[activator]	.	-1%	1%	.	.
CC(C)[C@H](NC(=O)Nc1ccc2c(c1)OCCO2)C(=O)O	14%	19%	14%	4%	4%	-17%	2%	9.7%
COc1ccc(-c2cnn3c4c(c(C)nc23)CCN4C2CCCC2)cc1OC	-27%	-7%	0%	3%	0%	-1%	-4%	1.9%
CCN(C(=O)CCS(=O)(=O)c1cc2c(cc1Cl)NC(=O)CO2)c1ccccc1	9%	.	-12%	.	11%	10%	.	.
COc1ccc(CCNC(=O)c2c(C)oc3ncn(C)c(=O)c23)c(OC)c1	.	6%[46.1 µM]	25%	-11%	.	.	.	-0.2%
COc1ccc(NC(=O)NC23CC4CC(CC(C4)C2)C3)cc1OC	11%	3%	-10%	6%	0%	21%	14%	-2.8%
CSc1ccc(CCNC(=O)c2ccc3c(c2)nc2n3CCCCC2)cc1	.	-15%[46.1 µM]	-28%	-15%	.	.	.	-3.1%
NC(=O)c1ccc(F)cc1	5%	19%	6%	0%	1%	-3%	3%	3.1%
CCCn1c(=O)c(-c2nc3ccccc3[nH]2)c(O)c2ccccc21	0%	0%	?	.	-6%	.	0%[46.1 µM]	.

More compounds:
SMILES	RE007 growth inh	LASV entry inh	2A StopGo	Cruzain noTriton	SARS PLP yeast	NS1 function inh	MARV entry inh	Cruzain inh Det
C#CCOCCOCCOCCNc1nc(N2CCN(C(=O)[C@H](Cc3cc4ccccc4[nH]3)n3cc([C@@H](N)CC(C)C)nn3)CC2)nc(N2CCN(C(=O)[C@H](Cc3cc4ccccc4[nH]3)n3cc([C@@H](N)CC(C)C)nn3)CC2)n1	7%	.	-1%	.	-3%	8%	.	.
Cn1nc(C(C)(C)C)cc1C(=O)NCc1ccc2c(c1)OCO2	17%	.	?	.	1%	-2%	.	.
Cc1ccnc2nc(C(=O)OCCOc3ccc(F)cc3)nn12	2%	-14%	4%	.	2%	4%	8%[46.1 µM]	.
Cc1c(NC(=O)c2nn(C)c(=O)c3ccccc23)c(=O)n(-c2ccccc2)n1C	-8%	-5%	-20%	.	.	4%	18%&18%	.
Cc1cccc(NC(=O)c2cc(N3C(=O)CCC3=O)ccc2Cl)n1	-6%	43%[14.3 µM]	-14%	4%	4%	0%	0%	9.2%
c1ccc(C2=NCCCN2)cc1	9%	14%	.	-7%	-1%	6%	-6%	4.8%
O=C(NCc1ccco1)c1ccc(S(=O)(=O)c2cccc(S(=O)(=O)N3CCOCC3)c2)cc1	13%	-12%	-3%	?	?	-16%	2%&12%	-5.4%
O=C(CCN1C(=O)c2ccncc2C1=O)Nc1ccc2c(c1)OCCO2	17%	4%	0%	9%	3%	5%	2%[46.1 µM]	5.7%
CN(C)c1ccc(-n2cccc2/C=N/n2cnnc2)cc1	0%	?	-15%	-10%	-10%	-2%	21%	-4.6%
CCOC(=O)c1cccc(NC(=O)CSc2nnc(C)n2CC2CCCO2)c1 (stereo unspecified)	-9%	?	-19%	.	-2%	1%	-9%[46.1 µM]	.
O=C(NCCCn1ccnc1)C(=O)NCC1OCCCN1S(=O)(=O)c1ccccc1 (stereo unspecified)	27%	-8%	-7%	-8%	-4%	-9%	-1%	-2.8%
Cc1ccc(NC(=O)Cn2nc(C(=O)O)c3ccccc3c2=O)cc1S(=O)(=O)N1CCCCC1	-11%	3%	40µM*	.	0%	.	-27%	.
O=c1cc(-c2ccccc2)nc(N2CCN(Cc3ccccc3)CC2)[nH]1	4%	?	-22%	-2%	-1%	-15%	-10%[46.1 µM]	3.5%
Cn1c(=O)c2[nH]c(CN(Cc3ccccc3)Cc3ccccc3)nc2n(C)c1=O	9%	-1%	?	4%	-1%	-37%	?	-0.4%
O=C(OCc1nnc(-c2ccc(Cl)cc2)o1)c1ccc(=O)n(Cc2ccccc2)n1	-7%	12%	15%	-6%	-8%	-11%	21%&21%	-2.2%
S=c1nc2c(n[nH]1)c1ccccc1n2CCc1ccccc1	21%	?	-18%	.	4%	?	?	.
Cc1ccc(C)c(Cn2nnc3c(=O)[nH]c(C4CCCN(C(=O)CC(C)C)C4)nc32)c1 (stereo unspecified)	0%	-26%	?	?	-2%	-7%	1%	0.8%
CN1CCc2c(sc3c2c(=O)n(-c2ccccc2)c2nnc(SCc4ccc(F)cc4)n32)C1	1%	.	-13%	.	.	-12%	-3%	.
COc1ccc([N+](=O)[O-])cc1NC(C)C	1%	3%	10%	-5%	1%	23%	8%	-3.5%
CCSc1nc2[nH]ncc2c(=O)[nH]1	6%	22%	-4%	-2%	14%	22%	22%	2.1%
C[N+]1(C)C2CCC1CC(OC(=O)c1ccco1)C2 (stereo unspecified)	3%	.	-19%	.	1%	9%	.	.
Cc1c(O)ccc(/C(Cc2ccc3ccccc3n2)=N\N)c1O	4%	.	22%	.	1%	1%	.	.
Fc1cccc(NCc2ccccc2-c2nnc(-c3ccccc3Cl)o2)c1	.	26%[46.1 µM]	44%[activator]	4%	.	.	?	4.4%
CCN(C(=O)COC(=O)CCc1ccc(OC)cc1)c1c(N)n(Cc2ccccc2)c(=O)[nH]c1=O	-3%	-10%	-11%	.	-1%	.	1%	.
C[C@]12CC[C@@H](O)CC1=CCC1C2CC[C@@]2(C)C1C[C@@H](F)[C@@H]2O (stereo partly specified)	0%	11%[46.1 µM]	-12%	.	-1%	.	15%[46.1 µM]	.

(cont.)
SMILES	RE007 growth inh	LASV entry inh	2A StopGo	Cruzain noTriton	SARS PLP yeast	NS1 function inh	MARV entry inh	Cruzain inh Det
Clc1ccccc1-c1nc(-c2ccc(Br)o2)no1	-17%	.	-7%	.	-2%	-15%	.	.
CSCCC(NC(=O)COc1ccccc1)C(=O)N1CCN(c2ccccc2)CC1 (stereo unspecified)	-4%	10%	52%[activator]	.	-1%	.	8%	.
C#CCOCCOCCOCCNc1nc(N2CCN(C(=O)C([C@@H](C)CC)n3cc(C(N)CC(C)C)nn3)CC2)nc(N2CCN(C(=O)[C@H](CCC(=O)O)n3cc(C(N)Cc4ccc(O)cc4)nn3)CC2)n1 (stereo partly specified)	-7%	.	-8%	.	-1%	-1%	.	.
Cc1ccc(CNC(=O)CN(C)S(=O)(=O)c2ccc3c(c2)c(=O)n(C)c(=O)n3C)cc1	.	0%[46.1 µM]	3%	10%	.	.	-19%[46.1 µM]	3.3%
CNS(=O)(=O)c1cn(CC(=O)N2CCN(c3ccc(C(C)=O)cc3)CC2)cc1S(=O)(=O)NC	.	8%[46.1 µM]	12%	-3%	.	.	.	-2.1%
CSc1ccc(CCNC(=O)CCc2c(C)nc3c(c(C)nn3-c3ccc(C)c(C)c3)c2C)cc1	.	5%[46.1 µM]	-9%	-6%	.	.	6%[46.1 µM]	2.1%
O=C(Cn1c(=O)c2cccn2c2ccccc21)NCc1cccc(F)c1	4%	2%[46.1 µM]	6%	.	4%	14%	1%[46.1 µM]	.
CCCc1nc(SCC(=O)Nc2nc3c(s2)CCCC3)c2ccccc2n1	1%	?	.	-9%	0%	10%	?	-8.5%
O=C(CSc1ncn[nH]1)Nc1ccc2c(c1)OCCO2	1%[3.69 µM]	22%	32%[activator]	12%	-10%	3%	0%	-6.4%

Screens deposited in PubChem BioAssay by National Center for Advancing Translational Sciences (NCATS).
